# High-throughput results deposited in PubChem by National Center for Advancing Translational Sciences (NCATS).
# StopGo RLuc – Primary qHTS Assay for Foot and Mouth Disease Virus Antivirals against NCGC Sytravon and CBC Compound Libraries: Renilla Luciferase Signal. Potency, µM (highest dose often 57.5 µM), inactives show at the highest dose signal change, negative = less light. hit rate 0.32% among 120,000. HEK cells with a luciferase reporter of 2A StopGo recoding; active means well fitted falling curve with a large enough effect; inconclusive means small, poorly fitted or top-dose-only effect; inactive means no such curve, though single readings can be large or run the other way; note: nearly all actives have a fitted effect of over 55% in size; overnight with compound
# StopGo FLuc – Primary qHTS Assay for Foot and Mouth Disease Virus Antivirals against NCGC Sytravon and CBC Compound Libraries: Firefly Luciferase Signal | hit rate 0.23% among 120,000 | HEK cells with a luciferase reporter of 2A StopGo recoding | Potency, µM (highest dose often 57.5 µM), inactives show top-dose signal change, negative = less light | AID 1745856, 2022; active = well fitted falling curve with a large enough effect; inconclusive = small, poorly fitted or top-dose-only effect; inactive = no such curve, though single readings can be large or run the other way; note: nearly all actives have a fitted effect of over 60% in size; overnight with compound
# Numbers without * were called inactive; ? = inconclusive; [ ] = dose if it differs, or a comment. % is set by controls: 0 for no effect and ±100 for the full control effect; potency is the fitted concentration of half-maximal effect. A portion of the library, so the mix of outcomes need not match the whole.
# Fields: StopGo FLuc	StopGo RLuc
CCOC(=O)c1c(S(=O)(=O)NCC(=O)Nc2cccc(SC)c2)c(C)n(C)c1C
→ -16%	158%[activator]
COc1ccc(-n2cc(-c3ccc4c(c3)OCO4)n(CC(=O)Nc3cccc(C)c3)c2=O)cc1
→ 35%[activator]	47%[activator]
Cc1c(Cl)cccc1NC(=O)CCS(=O)(=O)c1cccc2nsnc12
→ -5%	8%
CCC(=O)N1CCC(C(=O)Nc2ccc(S(=O)(=O)N3CCCC3)cc2)CC1
→ -1%	-5%
Nc1nccnc1C(=O)NCc1cccc(C(F)(F)F)c1
→ ?	?
COc1ccc(-c2cnn3c(C)cc(C)nc23)cc1S(=O)(=O)NCc1ccc(F)cc1
→ 16%	10%
COc1ccc(OC)c(CNC(=O)C(C)n2c(C)c3cnn(-c4ccccc4)c(=O)c3c2C)c1 (configuration not stated)
→ 23%	-13%
CCN(CC)C(=O)CSc1nn(CC)c2nc3c(c(=O)n12)C(C)(CC)Cc1ccccc1-3 (configuration not stated)
→ 3%	-2%
O=S(=O)(c1ccc(SCc2cc(Cl)c3c(c2)OCCCO3)nc1)N1CCOCC1
→ 2%	-8%
CC(=O)N1CCCc2cc(S(=O)(=O)N3CCC(C(=O)NC4CCCCC4)CC3)ccc21
→ -9%	-12%
Cc1nc2nc(CC(=O)NCc3ccccc3)nn2c(C)c1Cc1ccc(Cl)cc1
→ 16%	10%
Cc1ccc(Cn2c(CN3CCOCC3)nc3ccccc32)cc1
→ -8%	-17%
O=C1CN(C(=O)CNc2ccccc2C(=O)Nc2ccc(F)cc2)c2ccccc2N1
→ 135%[activator]	49%[activator]
CCC(CC)NC(=O)Cc1cccs1
→ 4%	-6%
Cc1cc(=O)oc2c(C)c(OCC(=O)c3ccccc3)ccc12
→ 13%	6%
CCOC(=O)c1ccc(NC(=O)C2CCCN(c3ncnc4onc(-c5ccc(F)cc5)c34)C2)cc1 (configuration not stated)
→ 5%	1%
CC(=O)c1ccc(NC(=O)c2cnn(-c3cccc(F)c3)c2-n2cccc2)cc1
→ 0%	1%
CC(C)C(=O)N1CCC(C(=O)Nc2cccc(OCC3CCCO3)c2)CC1 (configuration not stated)
→ 0%	-7%
O=C(NCCc1csc(-c2cccc(F)c2)n1)c1ccccc1C(F)(F)F
→ -26%	-5%
COc1cccc2cc(-c3nc(Nc4cccc(C)c4)sc3C)c(=O)oc12
→ 10%	6%
Cc1ccc2c(C)nc(/N=C(\N)NC(=O)Cc3ccccc3)nc2c1
→ 18%	9%
Cc1ccc(CO)cc1Nc1ncnc2onc(-c3ccc(F)cc3)c12
→ -18%	-8%
C#CCN(CC(=O)NC(=O)NCC=C)C1CCc2ccccc21 (configuration not stated)
→ 6%	12%
CCOC(=O)c1c(C)c(C)n(Cc2cccs2)c1NC(=O)CN(CC)CC(=O)NC(C)(C)C
→ 24%	0%
Cc1ccc(Cl)cc1NS(=O)(=O)c1ccc2c(c1)NC(=O)CCS2
→ 3%	182%[activator]
Cc1ccccc1-c1nc2scc(CCNS(=O)(=O)c3ccccc3)n2n1
→ 8%	212%[activator]
CCOc1c(Br)cc(/C=C/C(=O)c2ccc(OC)c(OC)c2)cc1OC
→ ?	?
Cc1[nH]c2ccccc2c1C(c1ccc(F)cc1)c1c(C)[nH]c2ccccc12
→ 0%	29%
Nc1ccc2c(c1)C(=O)NC2
→ -6%	-6%
COc1ccc(-n2nc(C)c3c2NC(=O)CC3c2ccc(O)cc2)cc1 (configuration not stated)
→ 0%	39%[activator]
CCc1c(C)sc(NC(=O)C(c2ccccc2)c2ccccc2)c1C#N
→ 2%	-4%
COc1cc(C2CC(=O)Nc3c2ncn3-c2ccccc2Br)ccc1O (configuration not stated)
→ 111%[activator]	99%[activator]
Cc1cccc(OC(C)C(=O)Nc2ccc(SCc3cc(=O)n4c(ncn4C(C)C)n3)cc2)c1 (configuration not stated)
→ 2%	4%
COc1ccccc1N1CCN(C(=O)c2cn(C)c3ccc(S(=O)(=O)N(C)C4CCCCC4)cc3c2=O)CC1
→ -9%	-3%
Cc1ccc(CCNC(=O)c2cn(C)c3ccc(S(=O)(=O)N(C)C4CCCCC4)cc3c2=O)cc1
→ -13%	-9%
Cc1cc(-c2ccc(C)c(S(=O)(=O)NC(c3cccs3)C(C)C)c2)on1 (configuration not stated)
→ -1%	373%[activator]
O=C1CSc2ccc(S(=O)(=O)NC3CCCCC3)cc2N1
→ 13%	168%[activator]
CC(C)Cn1cnc2c1c(=O)n(CC(=O)NCCc1ccc(F)cc1)c(=O)n2Cc1ccccc1
→ -16%	-5%
CCCNC(=O)c1ccc2c(c1)ncn2-c1ccc(OCc2ccccc2)cc1
→ 10%	9%
O=C(Cc1c[nH]c2ccccc12)NC1CCN(CC2CCCC2)CC1
→ -16%	-26%
O=[N+]([O-])c1ccc(S(=O)(=O)N2CCn3cccc3C2c2ccccc2F)cc1 (configuration not stated)
→ -8%	66%[activator]
CCc1cccc(NC(=O)COc2cc(=O)n(CC)c3ccccc23)c1
→ -2%	-7%
COc1ccc2cc(C(=O)NCC3CCC3)c(C)nc2c1
→ 89%[activator]	9%
CC(/C=C/c1ccc(F)cc1)=C\C(=O)O
→ 20%	13%
N#Cc1c(NC(=O)CSc2ncnc3ccccc23)sc2c1CCC2
→ -3%	-14%
CCN(CC)c1cc(C)c2cc(NC(=O)c3cccc(F)c3)ccc2n1
→ 62%[activator]	9%
COc1ccccc1N1CCN(C(=O)CCc2nnc3n(C)c(=O)c4sccc4n23)CC1
→ -6%	-11%
O=C(O)CCN1CCCCC1
→ 1%	-7%[1.06 µM]
CCNC(=O)NC(=O)C(C)Sc1nnc(-c2cccc(C)c2)n1C (configuration not stated)
→ 20%	18%
O=C(Cn1c(=O)n(Cc2ccccc2)c(=O)c2sc3ccccc3c21)Nc1ccccc1F
→ -1%	-2%

# Further entries follow:
# Fields: StopGo FLuc	StopGo RLuc
CCCNC(=O)C1CCN(C(=O)c2ccc(C(F)(F)F)cc2)CC1
→ 10%	-4%[1.06 µM]
Cc1ccc(/C(O)=C2\C(=O)C(=O)NC2c2cccc(F)c2)cc1 (configuration not stated)
→ 0%	-5%
O=C(NC1CCN(Cc2ccccc2)CC1)c1ccc(Cn2c(=O)c3ccccc3n(Cc3ccc(F)cc3)c2=O)cc1
→ -17%	-2%
Cc1ccc(NC(=O)Cn2cc3c(n2)CCC(C)C3)cc1C (configuration not stated)
→ -12%	-3%
O=C(COc1ccc(Cl)cc1Cl)OCC(=O)c1ccc[nH]1
→ -5%	-17%
Cc1ccc(Cn2c(Sc3ccccc3)nc3c2c(=O)[nH]c(=O)n3C)cc1
→ 35%[activator]	22%
CC(=O)Nc1c(C)noc1/C=C\c1ccc(C)c(S(=O)(=O)Nc2cccc(C)c2C)c1
→ -8%	193%[activator]
CC(C)(C)NC(=O)C(F)(F)C(F)(F)C(=O)NC(C)(C)C
→ 0%	5%
COc1ccccc1CNC(=O)c1cccn1-c1nnc(N2CCCC2)s1
→ -8%	-3%
COc1ccc(-n2nc(C(=O)Nc3cccc(C(F)(F)F)c3)c3c4ccccc4n(C)c3c2=O)cc1
→ -9%	-3%
CCC(C)(C)c1cc(O)c(C(C)(C)CC)cc1O
→ -14%	-5%
CC(=O)c1ccc(NC(=O)c2cc(S(=O)(=O)N3CCOCC3)ccc2C)cc1
→ -3%	-7%
COc1cc(C(=O)N2CCC(CC(=O)NCCN(C)C)CC2)cc(OC)c1OC
→ 2%	-4%
CC(NC(=O)/C=C/c1ccc(Br)cc1)C1CC2CCC1C2 (configuration not stated)
→ 20%	-4%
CCCN(CCC)C(=O)c1c[nH]c2ccc(S(=O)(=O)N(C)c3ccc(Cl)cc3)cc2c1=O
→ -22%	-5%
O=C(CCC1N=C2c3ccccc3N=C(SCc3cccc(F)c3)N2C1=O)NC1CCCCC1 (configuration not stated)
→ -11%	-16%
CCSc1nc2c(c(=O)n(Cc3ccccc3Cl)c(=O)n2C)n1C
→ 2%	-4%
Cn1cc(-c2cc3n(n2)CCC(=O)N3CC(=O)NC2CCCCC2)c2ccccc21
→ 3%	4%
CC(NC(=O)C1CCN(C(=O)c2cccc3ccccc23)CC1)c1ccc(F)c(F)c1 (configuration not stated)
→ -7%	17%
CCc1ccccc1NC(=O)CSc1ncccc1C(=O)O
→ -18%	-16%
Cc1ccc(CSCCC(=O)N2CCN(c3ccc(F)cc3)CC2)cc1
→ -12%	-10%
CC1=C(c2ccc(C(C)C)cc2)S(=O)(=O)NC1=NCc1ccc(OC(C)C)cc1
→ 0%	38%[activator]
CCOc1ccccc1COC(=O)c1ccccc1C(=O)c1ccccc1
→ 14%	55%[activator]
COc1ccc2c(C)c(CCC(=O)Nc3c(C)cccc3C)c(=O)oc2c1
→ -13%	3%
O=C(NCCC1CCCC1)c1cccc2ncccc12
→ 41%[activator]	4%
CC(NC(=O)CCc1ccc(C#N)cc1)c1cccs1 (configuration not stated)
→ 0%	13%
Cc1ccc(C2c3c(-c4cc(C)cc(C)c4O)n[nH]c3C(=O)N2CCCO)cc1 (configuration not stated)
→ 0%	19%
N#Cc1c(/N=C/c2cccc(Br)c2)sc2c1CCCC2
→ 154%[activator]	9%
COc1nc(C(=O)NCCCN2CCCC2=O)cc2ccccc12
→ 141%[activator]	17%
Cn1c(=O)c2c(ncn2CCNC2=NCCCCC2)n(C)c1=O
→ 7%	-15%
COc1cccc(C(=O)Nc2cccc3ccc(C)nc23)c1
→ 12%	10%
CCC(CO)Nc1ccc(-c2nn(C)c(=O)c3ccccc23)cc1[N+](=O)[O-] (configuration not stated)
→ 124%[activator]	84%[activator]
O=C(NCc1ccc2c(c1)OCCO2)N1CCN(S(=O)(=O)c2c(Cl)cccc2Cl)CC1
→ -12%	3%
CCOC(=O)N1CCN(Cc2nc3c([nH]2)c(=O)n(C)c(=O)n3C)CC1
→ 0%	-8%
O=C(Nc1cccc(-c2nc3ccccc3o2)c1)c1ccc([N+](=O)[O-])cc1
→ 0%	-15%
Cc1ccccc1Cn1cc(S(=O)(=O)c2ccc(Cl)cc2)c(=O)c2cc3c(cc21)OCO3
→ 0%	-17%
O=C1CCCc2nccc(-c3ccc(Cl)cc3)c21
→ 264%[activator]	4%
COc1cccc(NC(=O)[C@H](C(C)C)n2nnc3ccccc3c2=O)c1
→ -1%	40%[activator]
O=C(NC1CCS(=O)(=O)C1)c1cn(Cc2ccccc2)c2ccccc12 (configuration not stated)
→ 2%	-7%
CCN(CC)S(=O)(=O)c1ccc2[nH]c(=O)cc(C(=O)N(C)CC3CC3)c2c1
→ -1%	1%
Cc1ccc(-n2c(=O)c3c(c4cc(C)ccc4n3C)n(CC(=O)NCc3ccccc3)c2=O)cc1
→ 23%	-18%
CCc1c(C)sc(NC(=O)Cc2ccc(Cl)c(Cl)c2)c1C#N
→ -8%	4%
CCOc1ccc(C(C)NC(=O)c2n[nH]c(=O)c3ccccc23)cc1 (configuration not stated)
→ -1%	-5%
O=c1ccc(N2CCCN(S(=O)(=O)c3cccc4nsnc34)CC2)nn1-c1ccccc1
→ 6%	8%
O=C1CC(c2ccccc2)Cc2[nH]c(=O)c(-c3nc(-c4ccc(Cl)cc4)cs3)cc21 (configuration not stated)
→ -4%	-13%
CCN(CC)CCCNC(=O)c1nc(-c2cccc3[nH]ccc23)no1
→ 0%	4%
COC(=O)c1c(-c2cccs2)csc1NC(=O)COc1ccc(C)cc1
→ 13%	-13%
Cc1cccc(OCC(=O)NCc2ccc3c(c2)CCN3C(=O)c2ccc(Cl)cc2)c1
→ -25%	-12%
Cc1ccc(NC(=O)Cc2nnc(SC(C)C(=O)Nc3ccc4c(c3)OCO4)n2C)cc1 (configuration not stated)
→ -3%	25%
O=C(NCC(c1cccs1)N1CCOCC1)c1cc(=O)c2cc(Br)ccc2o1 (configuration not stated)
→ -4%	-2%

# More compounds follow:
# Fields: StopGo FLuc	StopGo RLuc
CCOC(=O)N1CCN(c2nc(C)c3c(n2)CC(c2ccc(F)cc2)CC3=O)CC1 (configuration not stated)
→ -16%	-6%
CCSc1nc(N)c2c3c(sc2n1)CCCC3C (configuration not stated)
→ 178%[activator]	13%
CCCC1=C(C(=O)OCC)C(c2ccccc2C)C(C#N)=C(N)O1 (configuration not stated)
→ 10%	16%
COc1cccc(CNc2nccn(-c3ccc(OC)c(OC)c3)c2=O)c1
→ 15%	24%
